From PubChem
gsp agonist: activates gsp, the McCune-Albright syndrome mutation | actives 0.13% (n = 340,000) | gsp mutant cells, cAMP HTRF, 30 min; control for the full effect not named in the record | Potency, µM (titrated, usually from 76.9 µM), without a hit: top-dose activation (cAMP increase), usual class: activators | AID 624287; active = well fitted activation curve with a large enough effect; inconclusive = small, poorly fitted or top-dose-only effect, or another doubt; inactive = no such curve, though single readings can be large or run the other way; cell line not stated here;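 note: phosphodiesterase inhibitor Ro 20-1724 added with compounds to block cAMP breakdown; potency is the fitted concentration of half-maximal effect; nearly all actives have a fitted effect of over 60% in size; about a fifth of the inactives were tested at one dose only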
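Cells stably selected in G418 were plated at 2000/well, grown 16-24 hr, then given compounds in DMSO with the PDE inhibitor […] (300 uM solution added) for 30 min at 37C; cAMP was read by HTRF.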
gsp antag: gsp mutant antagonism. actives 0.4% (n = 340,000). Potency, µM (highest dose often 76.9 µM), inactives show top-dose activity change, negative = inhibition, most hits filed as inhibitors. gsp-mutant cells, cAMP HTRF, 30 min; control for the full effect not named in the record. AID 624288; active = falling curve of any shape with a large fitted effect; inconclusive = falling curve, mostly with a smaller effect; inactive = flat or rising curve; cell line not stated here;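 note: intracellular cAMP measured with PDE inhibitor Ro 20-1724 present during compound exposure; potency is the fitted concentration of half-maximal effect; % is set by controls: 0 for no effect and ±100 for the full control effect; nearly all actives have a fitted effect of over 65% in size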
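Cells, 2000/well, grown 16–24 h in DMEM 10% FBS with 0.5 mg/ml G418, then compounds plus […] (300 uM addition stock), 30 min at 37C. cAMP read by HTRF (cAMP-d2 and anti-cAMP antibody-K in lysis buffer) after 30 min RT.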
Six1-Eya2 inh: blocks human Six1 binding to Eya2 | Q15475+O00167 | AlphaScreen GST-Six1/His-Eya2 binding, biochemical; hits give low values; control for the full effect not named in the record | activity change, % (test concentration not listed) | actives 0.56% (n = 360,000); in the data active = activity change below about -65%; inconclusive = about -30% to -65%; inactive = above about -30%; note: % is set by controls: 0 for no effect and ±100 for the full control effect; compound concentration not given in the record
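AlphaScreen with GST-Six1 and His-Eya2 (5X mix: 250 nM and 500 nM), glutathione donor and nickel acceptor beads; buffer 50 mM Tris pH 8.0, 300 mM NaCl, 1 mM TCEP; 1 h at 37 C in the dark.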
D2 PAM: potentiates the human D2 dopamine receptor allosterically | DiscoveRx D2 beta-arrestin cells, luminescence, 90 min; 100% = 57 uM dopamine signal | P14416 | potentiation, % (concentration not given with the values) | actives 0.23% (n = 360,000); active = potentiation of 50% or more; inconclusive = 30% to 50%; inactive = 30% or less;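 note: compound concentration not given in the record; tested on top of an EC20 dose of dopamine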
Target sequence (P14416 whole entry, looked up): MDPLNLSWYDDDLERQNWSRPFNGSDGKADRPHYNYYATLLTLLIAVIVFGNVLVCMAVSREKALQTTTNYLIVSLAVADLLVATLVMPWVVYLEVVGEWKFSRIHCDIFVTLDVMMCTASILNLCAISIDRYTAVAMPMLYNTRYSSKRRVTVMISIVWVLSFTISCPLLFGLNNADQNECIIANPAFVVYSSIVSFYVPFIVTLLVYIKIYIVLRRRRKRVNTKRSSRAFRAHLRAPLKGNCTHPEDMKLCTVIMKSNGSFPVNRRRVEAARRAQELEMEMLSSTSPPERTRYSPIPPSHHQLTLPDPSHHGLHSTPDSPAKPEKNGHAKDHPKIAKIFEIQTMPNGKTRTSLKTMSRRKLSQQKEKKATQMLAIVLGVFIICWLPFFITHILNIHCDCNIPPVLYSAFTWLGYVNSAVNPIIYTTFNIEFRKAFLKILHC
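D2 cells co-treated with compound plus 50 nM dopamine (EC20) for 90 min at 37 deg C to detect potentiation. Beta-arrestin recruitment was read as enzyme-fragment luminescence after 1 h at ambient temperature. Full response was set by 57 uM dopamine.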
D2 agonist: activates the human D2 dopamine receptor | DiscoveRx PathHunter D2 beta-arrestin, luminescence, 90 min; 100% = 57 uM dopamine signal | activation, % (test concentration not listed) | P14416 | AID 624465 | actives 0.084% (n = 360,000); in the data active = activation above about 40%; inconclusive = about 15% to 40%; inactive = below about 15%; note: compound concentration not given in the record; the text of the record calls up to 30% inactive
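DiscoveRx PathHunter D2 beta-arrestin cells (2,100/well) attached overnight, then compound-stimulated 90 min at 37 C in HBSS/10 mM HEPES/0.1% Tween-20 buffer; beta-galactosidase complementation read by luminescence after 1 h at ambient temperature. Dopamine 57 uM final (EC100) as control.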
CtBP-E1A inh: inhibitors of CtBP/E1A interaction; AlphaScreen GST-E1A/His-CtBP binding, 1536-well; hits give low values; control for the full effect not named in the record; activity change, % (concentration not given with the values); actives 0.49% (n = 340,000); in the data active means activity change below about -65%; inconclusive means about -30% to -65%; inactive means above about -30%; note: % is set by controls: 0 for no effect and ±100 for the full control effect
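In 5 uL wells, 23 nL compound meets equimolar GST-E1A and His-CtBP (5X stock 125 nM each) for 2 h, 37 °C. Beads (5X, 50 ug/mL) then 1 h, 37 °C, dark.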
Starred values were filed as active, the others as inactive; [ ] = another dose, or the depositor's remark.

`Cc1onc(-c2ccccc2)c1C(=O)O/N=C(\N)c1ccc([N+](=O)[O-])o1` gave gsp agonist -2%, gsp antag -16%, Six1-Eya2 inh -18, D2 PAM 7 and D2 agonist 2.2.
For COc1cc(C2Nc3ccccc3C(=O)N2c2ccc(Cl)cc2)c(Cl)cc1OCC(=O)O (stereo not given) the results were gsp agonist 12%, gsp antag 3%, Six1-Eya2 inh 1, D2 PAM -5, D2 agonist -1.0 and CtBP-E1A inh 4.
Cc1c(-c2ccccc2)c(=O)oc2ccc(O)cc12 was read as gsp agonist 21%, gsp antag 6%, Six1-Eya2 inh 4, D2 PAM -4 and D2 agonist 6.4.
`CN1C(=O)N(CN2CCCCC2)C2C1N(C)C(=O)N2CN1CCCCC1` (stereo not given) gave gsp agonist -20%, gsp antag 15%, Six1-Eya2 inh 6, D2 PAM 3, D2 agonist -1.5 and CtBP-E1A inh 9.
O=C(Nn1cnnc1)c1cc(Br)ccc1Cl was read as gsp agonist -5%, gsp antag 7%, Six1-Eya2 inh 0, D2 PAM -14 and D2 agonist -4.3.
N#Cc1ccc(CNC(=O)N2CCOCC2)cc1 was read as gsp agonist 0%, gsp antag -5%, Six1-Eya2 inh -2, D2 PAM 2 and D2 agonist -1.3.
COCCCNC(=S)NNC(=S)Nc1cccc(Cl)c1 was read as gsp agonist 23%, gsp antag -5%, Six1-Eya2 inh 6, D2 PAM -13 and D2 agonist -9.4.
Screening CNc1cc(CSC)nc(SCc2ccc(Cl)c(Cl)c2)n1 returned gsp agonist 20%, gsp antag 4%, Six1-Eya2 inh -2, D2 PAM -3, D2 agonist 3.9 and CtBP-E1A inh 3.
For CC(=O)n1cc(-c2ccncc2)c2ccccc21 the results were gsp agonist 9%, gsp antag -5%, Six1-Eya2 inh -6, D2 PAM 8, D2 agonist 12 and CtBP-E1A inh -3.
Screening CC1CCc2nc(NC(=O)CN3CCOCC3)sc2C1 (stereo not given) returned gsp agonist 5%, gsp antag 9%, Six1-Eya2 inh -5, D2 PAM -7, D2 agonist -0.3 and CtBP-E1A inh -2.
C=CCNS(=O)(=O)c1ccc(N2C(=O)c3ccccc3C2=O)cc1 was read as gsp agonist 8%, gsp antag 1%, Six1-Eya2 inh 4, D2 PAM -7 and D2 agonist 4.5.
For CN(C)c1ccc(/C=N/NC(=O)c2ccc3c(c2)OCCO3)cc1 the results were gsp agonist 3%, gsp antag -22%, Six1-Eya2 inh -16, D2 PAM -12, D2 agonist 1.7 and CtBP-E1A inh 0.

Retrieved by structure from the list above:
N#Cc1ccc(CNC(=O)N2CCOCC2)cc1 was read as gsp agonist 0%, gsp antag -5%, Six1-Eya2 inh -2, D2 PAM 2 and D2 agonist -1.3.
Screening CC1CCc2nc(NC(=O)CN3CCOCC3)sc2C1 (stereo not given) returned gsp agonist 5%, gsp antag 9%, Six1-Eya2 inh -5, D2 PAM -7, D2 agonist -0.3 and CtBP-E1A inh -2.
For CN(C)c1ccc(/C=N/NC(=O)c2ccc3c(c2)OCCO3)cc1 the results were gsp agonist 3%, gsp antag -22%, Six1-Eya2 inh -16, D2 PAM -12, D2 agonist 1.7 and CtBP-E1A inh 0.

New compounds follow:
`O=C(CCCOC(=O)c1ccc(O)cc1O)c1ccc(F)cc1` gave gsp agonist 9%, gsp antag 6%, Six1-Eya2 inh -3, D2 PAM -2, D2 agonist -3.1 and CtBP-E1A inh 12.
COc1cccc(CN2C(=O)CCC2(C)C(=O)NCCc2ccc(OC)c(OC)c2)c1 (stereo not given) was read as gsp agonist 6%[15.4 µM], gsp antag 12%, Six1-Eya2 inh 5, D2 PAM -8, D2 agonist -1.1 and CtBP-E1A inh -4.
Screening CCc1ccc(C2=NN(CCC(=O)NCC3CCCO3)C(=O)CC2)cc1 (stereo not given) returned gsp agonist -1%, gsp antag 5%, Six1-Eya2 inh 2, D2 PAM -9, D2 agonist -1.8 and CtBP-E1A inh 0.
Screening COc1ccccc1OCc1ccc(C(=O)N2CCCCC2)o1 returned gsp agonist 0%[15.4 µM], gsp antag -5%, Six1-Eya2 inh 8, D2 PAM -4, D2 agonist -1.6 and CtBP-E1A inh -2.
For Cc1ccnc2nc(C(=O)Nc3ccc4c(c3)OCO4)nn12 the results were gsp agonist inconclusive, gsp antag 14%, Six1-Eya2 inh 1, D2 PAM -11, D2 agonist -0.4 and CtBP-E1A inh 11.
Screening Cc1sc(NC(=O)Cc2ccc3c(c2)OCO3)nc1-c1ccc2c(c1)CCN2C(=O)c1cccc(F)c1 returned gsp agonist 3%, gsp antag 7%, Six1-Eya2 inh -8, D2 PAM -1, D2 agonist 5.0 and CtBP-E1A inh -4.
Screening O/N=C/c1cc(Br)cs1 returned gsp agonist -21%, gsp antag 5%, Six1-Eya2 inh 2, D2 PAM -16 and D2 agonist -4.0.
Cc1ccc(C2(C)NC(=O)N(CC(=O)NCc3cccs3)C2=O)cc1 (stereo not given) was read as gsp agonist 1%, gsp antag 6%, Six1-Eya2 inh 9, D2 PAM -4 and D2 agonist -5.1.
`Cc1c(C(=O)Nc2ccc(-c3nnc4n3CCCCC4)cc2)oc2c1ccc1ccccc12` gave gsp agonist 14%[15.4 µM], gsp antag inconclusive, Six1-Eya2 inh inconclusive, D2 PAM 9, D2 agonist 0.9 and CtBP-E1A inh 2.
O=C(C1=C[C@@H](C2CC2)C[C@@H](OCc2ccc(CO)cc2)O1)N1CCN(Cc2ccc3c(c2)OCO3)CC1 was read as gsp antag -19%, Six1-Eya2 inh -11, D2 PAM -15, D2 agonist -3.1 and CtBP-E1A inh -20.
For COc1ccc(S(=O)Cc2ccc(C(=O)N3CCN(c4cccc(C)c4C)CC3)o2)cc1 (stereo not given) the results were gsp agonist -19%, gsp antag 4%, Six1-Eya2 inh 4, D2 PAM 2 and D2 agonist 2.6.
For Cc1ccc(C)c2[nH]c(=O)c(C(c3nnnn3Cc3ccco3)N3CCc4ccccc4C3)cc12 (stereo not given) the results were gsp agonist inconclusive, gsp antag -15%, Six1-Eya2 inh -15, D2 PAM 3, D2 agonist -4.2 and CtBP-E1A inh -12.
For COc1ccc(C(=O)c2cc(C(C)=O)c(Nc3ccccc3)s2)cc1 the results were gsp agonist 6%, gsp antag inconclusive, Six1-Eya2 inh 22, D2 PAM -20, D2 agonist -1.7 and CtBP-E1A inh 3.
For O=C(NC1CCCCCC1)c1nc2ncccn2n1 the results were gsp agonist 6%, gsp antag 13%, Six1-Eya2 inh 3, D2 PAM 9, D2 agonist 0.5 and CtBP-E1A inh 0.
COCCCN1C(=O)C(CC(=O)NCc2cccs2)CC(C(=O)N(C)C)=C1C (stereo not given) was read as gsp agonist 22%, Six1-Eya2 inh 1, D2 PAM -2, D2 agonist -7.2 and CtBP-E1A inh -12.
Fc1cccc2sc(Nc3nnc(-c4ccco4)o3)nc12 was read as gsp agonist 24%, gsp antag inconclusive, Six1-Eya2 inh -22, D2 PAM -5, D2 agonist -3.1 and CtBP-E1A inh -15.
O=[N+]([O-])c1ccc(O)c(P(=O)(c2ccccc2)c2ccccc2)c1 was read as gsp agonist 25%, gsp antag 3%, Six1-Eya2 inh -10, D2 PAM -6, D2 agonist -1.4 and CtBP-E1A inh -13.
Screening CCCCN1C2=C(C(=O)CC(C)(C)C2)C(c2ccccc2)C2=C1c1ccccc1C2=O (stereo not given) returned gsp agonist -17%, gsp antag inconclusive, Six1-Eya2 inh -9, D2 PAM -34, D2 agonist -3.0 and CtBP-E1A inh -4.
`CCN1CCN(Cc2cccc(Oc3ccccc3)c2)CC1` gave gsp agonist 0%, gsp antag 6%, Six1-Eya2 inh -2, D2 PAM -23, D2 agonist -3.0 and CtBP-E1A inh 0.
For Cc1ccc(OCC(=O)Nc2ccc(NC(=O)c3ccccc3)c(C)c2)cc1 the results were gsp agonist inconclusive, gsp antag 14%, Six1-Eya2 inh 6, D2 PAM -19, D2 agonist -4.5 and CtBP-E1A inh 3.
`O=C(Nn1cnnc1)c1ccncc1` gave gsp agonist inconclusive, gsp antag 12%, Six1-Eya2 inh 0, D2 PAM -2, D2 agonist -1.8 and CtBP-E1A inh 8.
For Cc1ccc(S(=O)(=O)Nc2ccc3c(c2)n(C)c(=O)n3C)c(C)c1 the results were gsp agonist -13%[15.4 µM], gsp antag -4%, Six1-Eya2 inh -8, D2 PAM -2, D2 agonist -5.8 and CtBP-E1A inh 5.
For CN(CC(=O)Nc1ccc(Cl)cc1)C(=O)c1cccc(S(=O)(=O)NCc2ccccc2)c1 the results were gsp agonist -54%[inhibitor], gsp antag -3%, Six1-Eya2 inh 8, D2 PAM -17, D2 agonist -1.6 and CtBP-E1A inh -6.
`O=C(CCNS(=O)(=O)c1ccc(OC(F)(F)F)cc1)Nc1cccc(S(=O)(=O)N2CCCC2)c1` gave gsp agonist 5%, gsp antag inconclusive, Six1-Eya2 inh -7, D2 PAM -3, D2 agonist 1.6 and CtBP-E1A inh 1.
CCCC(=O)N(c1ccc2oc(=O)sc2c1)S(=O)(=O)c1cccs1 was read as gsp agonist 4%, gsp antag -9%, Six1-Eya2 inh -12, D2 PAM 27, D2 agonist 0.9 and CtBP-E1A inh -14.
For Cc1ccc(/C=C2/C(=N)N3N=C(CC(=O)N4CCCC4)SC3=NC2=O)cc1 the results were gsp agonist 0%, gsp antag 2%, Six1-Eya2 inh 7, D2 PAM -2 and D2 agonist 5.3.
O=C(CNC(=O)c1ccccc1F)c1ccc(Br)cc1 was read as gsp agonist 12%, gsp antag 5%, Six1-Eya2 inh 4, D2 PAM -1, D2 agonist 3.5 and CtBP-E1A inh 5.
Screening Cc1ccc(C2=NC3(CCCCC3)NC2=S)cc1 returned gsp agonist inconclusive, gsp antag 6%, Six1-Eya2 inh 8, D2 PAM -9, D2 agonist -12 and CtBP-E1A inh -3.
Cn1c(SCC(=O)C(C)(C)C)nnc1-c1ccccn1 was read as gsp agonist -12%, gsp antag 5%, Six1-Eya2 inh 1, D2 PAM -4, D2 agonist 0.5 and CtBP-E1A inh 1.
Screening O=C(CNC(=O)c1ccc(Cl)cc1Cl)OCC(=O)N1CCCC1 returned gsp agonist -5%, gsp antag 16%, Six1-Eya2 inh 0, D2 PAM -1, D2 agonist -0.8 and CtBP-E1A inh 13.
Screening CC(C)(C)OC(=O)N1CCCC(C(=O)Nc2cccc(C(=O)NCCc3ccccc3)c2)C1 (stereo not given) returned gsp antag 1%, Six1-Eya2 inh 6, D2 PAM -2, D2 agonist 1.7 and CtBP-E1A inh -9.
Screening CC(/C=N/NC(=O)c1nnn(-c2nonc2N)c1C(C)C)=C\c1ccco1 returned gsp agonist 51%, gsp antag inconclusive, Six1-Eya2 inh -6, D2 PAM -14, D2 agonist 1.4 and CtBP-E1A inh -4.
Screening CCOC(=O)N1CCN(Cc2nc(N)nc(Nc3ccc(Cl)cc3)n2)CC1 returned gsp agonist 5%[15.4 µM], gsp antag 0%, Six1-Eya2 inh inconclusive, D2 PAM 4, D2 agonist 4.2 and CtBP-E1A inh 2.
